VACV Venus inh – vaccinia inhibition (Venus reporter). Vaccinia virus Venus reporter expression, fluorescence. Potency, µM (series often up to 36.5 µM), without a hit: at the top dose activity change, negative = inhibition, usual class: inhibitors. actives 0.46% (n = 330,000). AID 720580; active means well fitted inhibition curve with a large enough effect; inconclusive means small, poorly fitted or top-dose-only effect; inactive means no such curve, though single readings can be large or run the other way; tested in A549 cells; also: nearly all actives have a fitted effect of over 30% in size; inactives centre near -10
VACV mCherry inh – inhibitors of vaccinia virus infection (mCherry reporter signal); Vaccinia virus mCherry reporter infection, fluorescence; about a quarter of the inactives have no number; Potency, µM (top dose mostly 36.5 µM), inactives show at the top dose activity change, negative = inhibition, most hits filed as inhibitors; actives 0.63% (n = 310,000); AID 720579; active = well fitted inhibition curve with a large enough effect; inconclusive = small, poorly fitted or top-dose-only effect; inactive = no such curve, though single readings can be large or run the other way; tested in A549 cells; also: nearly all actives have a fitted effect of over 35% in size; inactives centre near -10
Starred values were filed as active, the others as inactive; i = inactive; ? = inconclusive; . = not tested or not shown; & = joins results of further samples; [ ] = remark or other dose. % is scaled to controls: 0 for no effect and ±100 for the full control effect; potency is read from the fitted curve at half-maximal effect.

The first six records, to show the layout:
SMILES	VACV Venus inh	VACV mCherry inh
Cc1ccc(-c2nc(CS(=O)CC(=O)NCc3ccco3)c(C)o2)cc1 (stereo unspecified)	-13%	-11%
Cc1cc(/C=N\NC(=O)CC(=O)NC2CCCCC2)c(C)n1-c1cccc(Cl)c1Cl	-21%	-5%
O=C(CS(=O)(=O)c1cccc2nsnc12)Nc1ccccc1Cl	8%	3%
COc1ccc(C(=O)c2c[nH]c(C(=O)NCc3cccs3)c2)cc1	-6%	-12%
CCOC(=O)c1[nH]c2ccccc2c1NC(=O)c1ccc2c(c1)OCO2	-16%	i
Cc1ccc(S(=O)(=O)N[C@@H](Cc2ccccc2)C(=O)N2CCC(C(=O)N[C@@H](CC(C)C)C(=O)O)CC2)cc1	-3%	-7%

Results, previewed entries included:
SMILES	VACV Venus inh	VACV mCherry inh
Cc1ccc(-c2nc(CS(=O)CC(=O)NCc3ccco3)c(C)o2)cc1 (stereo unspecified)	-13%	-11%
Cc1cc(/C=N\NC(=O)CC(=O)NC2CCCCC2)c(C)n1-c1cccc(Cl)c1Cl	-21%	-5%
O=C(CS(=O)(=O)c1cccc2nsnc12)Nc1ccccc1Cl	8%	3%
COc1ccc(C(=O)c2c[nH]c(C(=O)NCc3cccs3)c2)cc1	-6%	-12%
CCOC(=O)c1[nH]c2ccccc2c1NC(=O)c1ccc2c(c1)OCO2	-16%	i
Cc1ccc(S(=O)(=O)N[C@@H](Cc2ccccc2)C(=O)N2CCC(C(=O)N[C@@H](CC(C)C)C(=O)O)CC2)cc1	-3%	-7%
CCN(CC)c1nc(-c2ccccc2)cc(C(F)(F)F)c1C#N	-18%	.
Cc1ccc(CNC(=O)C2CCC(=O)N(Cc3cccc(C(F)(F)F)c3)C2)o1 (stereo unspecified)	2%	i
COC(=O)c1ccc(NC(=O)CO/N=C2\CCCc3nonc32)cc1	-1%	-6%
CC(C)[C@H](NC(=O)c1ccccc1Cl)C(=O)Nc1nc(-c2ccccn2)cs1	?	?
CCOc1ccc(-n2cc(-c3ccccc3)c3c(N4CCOCC4)ncnc32)cc1	-9%	-16%
C/C=C/Cn1c(SC)nc2c1c(=O)[nH]c(=O)n2C	-13%	-2%
Cc1cc(C)cc(N(C(=O)c2ccc3c(c2)OCO3)C2C=CS(=O)(=O)C2)c1 (stereo unspecified)	0%	i
S=C(NCc1ccco1)N/N=C/c1ccc(Cl)cc1	-19%	?
CCc1nc(N2CCCCC2C(=O)O)c2oc3ccccc3c2n1 (stereo unspecified)	-11%	-3%

Following part:
SMILES	VACV Venus inh	VACV mCherry inh
CSCCC(NS(=O)(=O)Cc1ccccc1)C(=O)NNc1ccccc1 (stereo unspecified)	3%	43%[activator]
Fc1ccccc1-c1cc2ncccc2cn1	-1%	-8%
O=C(O)CN1CCN(C(c2ccccc2)c2ccccc2)CC1	-6%	-11%
O=C(COc1ccc(Cl)cc1)NNC(=O)C(=O)NC1CCCCC1	-18%	i
O=C(COc1ccc(Cl)cc1)Nc1nnc2n1CCS2	-4%	-6%
CCCCNC(=O)CN(c1cccc(F)c1)S(C)(=O)=O	-12%	i
O=C(NCc1ccc2c(c1)OCO2)C1(S(=O)(=O)c2ccccc2)CC1	-8%	-12%
Cc1ccc(CNC(=O)C(OC(=O)c2ccco2)C(C)C)cc1 (stereo unspecified)	0%	-8%
Cc1ccc(S(=O)(=O)NC(=O)COc2cc(C)ccc2C(C)C)cc1	-3%	-6%
Cc1c(C(=O)NCCN2CCOCC2)oc2ccc(S(=O)(=O)N3CCCCCC3)cc12	-11%	-19%
CC(=O)N1CCN(c2ncnc3ccccc23)CC1	-21%	-16%
COc1ccc(N/C=C(/C(C)=O)c2ccccc2)cc1	-4%	-22%
Cc1ccc(-n2nnnc2SCC(=O)Nc2cccnc2Cl)cc1	-21%	-25%
O=C(/C=C/c1cccc([N+](=O)[O-])c1)NC(=S)Nc1ccc(CN2CCOCC2)cc1	-17%	-4%
COc1ccccc1CNC(=O)C(=O)NCCC1CCCCN1S(=O)(=O)c1ccccc1 (stereo unspecified)	-27%	-29%

Going on with the list:
SMILES	VACV Venus inh	VACV mCherry inh
CC(C)(C)c1csc(NC(=O)CCS(=O)(=O)c2ccc(F)cc2)n1	7.9µM*	7.1µM*
O=C1CS(=O)(=O)C2(C(=O)N(Cc3ccccc3Cl)c3ccccc32)N1c1ccc(F)cc1 (stereo unspecified)	4%	9%
NC(CSCSCC(N)C(=O)O)C(=O)O (stereo unspecified)	0%	i
CC(C)(C)c1nnc(NC(=O)Cc2ccccc2[N+](=O)[O-])s1	-16%	-4%
CCO[C@H]1OC(C(=O)NC2CC2)=C[C@@H](c2ccc(Br)cc2)[C@@H]1CCCO	-20%	-17%
Cc1cccc(N2CCN(C(=O)c3cc4ccc5cccnc5c4[nH]3)CC2)c1C	-12%	-12%
COc1ccc(N2CCN(C(=O)C3CCN(S(=O)(=O)c4c(C)noc4/C=C/N(C)C)CC3)CC2)cc1	-17%	i
O=C(Nc1cccnc1)c1ccc(S(=O)(=O)c2ccc(Cl)cc2)cc1	-20%	-14%
COc1ccccc1NC(=O)CSc1nnc(-c2ccccc2)o1	-1%	-11%
CCN(CC)S(=O)(=O)c1cccc(NC(=O)c2cc(-c3cccs3)nn2-c2ccccc2)c1	-10%	i
CCCC(=O)Nc1c(-c2ccccc2)c(=O)c(C)nn1-c1ccc(Cl)cc1	0%	i
COc1cccc(NC(=O)COC(=O)c2ccco2)c1	-19%	-27%
O=C(Oc1cccnc1)c1cccc(Cl)c1	-17%	i
O=C(Nc1ccccc1C(=O)O)/C(=C/c1ccc(Cl)cc1Cl)NC(=O)c1ccco1	-15%	-2%
Cc1ccc(C)c(NCc2ccccc2CO)c1	7%	-21%

Going on with the list.
SMILES	VACV Venus inh	VACV mCherry inh
O=C(CCc1nc2ccccc2c(=O)[nH]1)Nc1ccccc1N1CCCCC1	-17%	i
O=C(CCCCCN1C(=O)c2ccccc2C1=O)NCCc1nc2ccccc2[nH]1	22%	.
Cc1ccccc1-c1nsc(SCC(=O)Nc2ccc3c(c2)OCO3)n1	-23%	?
COC(=O)c1ccc(-c2nn(C)c(=O)c3ccccc23)cc1	2%	3%
Cc1ccc(CNC(=O)Cn2cc(S(=O)(=O)Cc3ccccc3F)c3ccccc32)cc1	-1%	-11%
Cc1cc(=O)oc2cc(OCC(=O)NCCc3ccccc3)ccc12	-9%	-6%
ClCc1nc2ccccc2c2ccccc12	19%	-15%
COc1cccc(C(NC(C)=O)c2nc(-c3ccccc3)cs2)c1 (stereo unspecified)	-3%	25%
CSCCC(NS(=O)(=O)c1ccccc1F)C(=O)NCc1cccnc1 (stereo unspecified)	-8%	i
COCCNC(=O)C(OC(=O)c1cccs1)c1ccccc1 (stereo unspecified)	-7%	-14%
COc1ccc(C2=CC(c3ccccc3F)n3ncc(C(=O)Nc4ccc(C)cc4)c3N2)cc1 (stereo unspecified)	-3%	-13%
CCn1c(SCC(=O)N2CCN(c3ccc(F)cc3)CC2)nc2ccccc2c1=O	-9%	.
C1CCCN(CCCCN2CCCCCC2)CC1	-11%	-15%
COCCn1c(SCC(=O)Nc2ccc(Cl)cn2)nnc1-c1ccncc1	5%	i
COc1cc2sc(-c3ccccc3OC)c(-c3ccc(O)cc3)c2cc1OC	-25%	?

The last three records of the section before are carried over, then new ones follow:
SMILES	VACV Venus inh	VACV mCherry inh
C1CCCN(CCCCN2CCCCCC2)CC1	-11%	-15%
COCCn1c(SCC(=O)Nc2ccc(Cl)cn2)nnc1-c1ccncc1	5%	i
COc1cc2sc(-c3ccccc3OC)c(-c3ccc(O)cc3)c2cc1OC	-25%	?
Cc1ccc(S(=O)(=O)C2CCOC2=O)cc1 (stereo unspecified)	0%	-5%
CCCN1CCc2cc(O)cc3c2C1Cc1ccc(O)c(O)c1-3 (stereo unspecified)	-11%	i
CC(/C=C/c1ccccc1)=N\Nc1ccccc1[N+](=O)[O-]	-9%	-5%
CCOc1ccc(C2CC(=O)Nc3cc4c(cc32)OCO4)cc1OC (stereo unspecified)	-9%	-9%
COc1ccc(NC(=O)CN(C)C(=O)c2cc(S(=O)(=O)N(C)C)ccc2N2CCCC2)cc1	-16%	i
Cc1ccc(C(=O)N/C(=C/c2ccc(Cl)cc2)C(=O)Nc2cccc(C(=O)O)c2)cc1	-7%	-20%
Cc1cccc(C)c1NC(=O)Cn1nnc(C(=O)NCc2ccc(F)cc2)c1N	-4%	i
COc1cccc(NC(=O)Nc2cc(-c3cn4cccnc4n3)ccc2OC)c1	-9%	-19%
CCNC(=O)N(C)c1nncnc1C(=O)NC	-1%	-17%
CC(=O)c1cccc(NC(=O)c2cccc3c(-c4cnn(C)c4)coc23)c1	-20%	7%
CC1=NC(=O)C(N=Nc2ccccc2C(=O)O)N1c1ccccc1 (stereo unspecified)	-1%	-7%
CCC(=O)N(CCc1ccccc1C)Cc1cc2cc3c(cc2[nH]c1=O)OCO3	-4%	.
CN1C(=O)C2(c3ccccc31)N(c1cccc(F)c1)C(=O)CS2(=O)=O (stereo unspecified)	-5%	-6%
COc1cc2nc(N3CCN(C(=O)C4CCCO4)CC3)nc(N)c2cc1OC (stereo unspecified)	-22%&0%	-7%
Cn1c(SCC(=O)Nc2ccc(Cl)cn2)nnc1C1CC1	-12%	-4%

(more compounds)
SMILES,VACV Venus inh,VACV mCherry inh
CCCCCCCCNC(CO)(CO)CO,-14%,-5%
CCn1c(=O)c(NC(=O)c2ccccc2)c2n(c1=S)CCCCC2,-25%,.
CN(C)CCNC(=O)c1ccc(Sc2ccc(Br)cc2)c([N+](=O)[O-])c1,?,10µM*
COc1ccc(-n2nnnc2CNC(=O)C2CC(=O)N(c3ccc(Cl)cc3)C2)cc1 (stereo unspecified),-9%,-6%
O=C(CSc1ncnc2sccc12)N1CCCCC1,-15%,-1%
O=C(Cc1cccs1)N/N=C/C(Br)=C/c1ccccc1,-28%,i
COc1ccc(NC(=O)CSc2ncccc2C(=O)OC(C)C)cc1OC,?,-29%
CN([C@@H](Cc1ccc(OS(=O)(=O)c2cccc3cnccc23)cc1)C(=O)N1CCN(c2ccccc2)CC1)S(=O)(=O)c1cccc2cnccc12,-11%,-4%

Carrying on.
SMILES,VACV Venus inh,VACV mCherry inh
COc1ccccc1N1CCN(C(=O)c2ccc(Cl)c(S(=O)(=O)NCc3ccco3)c2)CC1,?,?
Cc1ncc(S(=O)(=O)c2ccccc2)c(-c2ccc(Cl)cc2Cl)n1,-13%,.
Cc1ccc(C)c(N2CCN(C(=O)c3ccc(NC(=O)c4nsc5ccccc45)cc3)CC2)c1,-13%,-18%
CC1SCC(NC(=O)c2cccc(Cl)c2)CS1 (stereo unspecified),-6%[7.34 µM],i[7.34 µM]
Cc1ccc(CNC(=O)c2nn(-c3ccc(Cl)cc3)nc2CO)cc1,0%,3%
O=C(Oc1ccc(-c2ccccc2)cc1)c1ccco1,-2%,-13%
O=C(O)CCSc1nc2ccccc2s1,-4%,-15%
COc1ccccc1OCCCn1cc(C(=O)C2CC2)c2ccccc21,-16%,-25%

Continuation.
SMILES,VACV Venus inh,VACV mCherry inh
CC(NC(=O)c1nn(C)c(=O)c2ccccc12)c1ccc(F)cc1 (stereo unspecified),-14%,-8%
COc1cccc(C2=N/C(=C\N(C)C)C(=O)O2)c1,-5%,-17%
COc1cccc(-c2nnc3n(CCc4ccccc4)c(=O)c4ccccc4n23)c1O,-4%,-10%
CC(=O)OC1CCC2(O)CC1(C)CCC1C2CC1(C)C (stereo unspecified),13%,2%
CC#CCN1c2ccccc2[C@]23C[C@@H](C(=O)OC)N(C(=O)C4CCC4)C2=NC(C(=O)OC)=C(C(=O)OC)[C@H]13,-6%,-24%
CCC(C)(C)C1CCC2(CC1)NC(=O)N(CC(=O)NC(C)CCc1ccccc1)C2=O (stereo unspecified),-13%,-5%
CN(Cc1ccccc1)C(=O)c1c[nH]c2ccc(S(=O)(=O)Nc3ccccc3F)cc2c1=O,-12%,-2%
OC[C@H]1O[C@@H](c2nc3ccc(-c4nc(-c5ccc(Br)cc5)no4)cc3[nH]2)C[C@@H]1O,9%,i

Other results
SMILES,VACV Venus inh,VACV mCherry inh
CCOc1ccc(S(=O)(=O)N2CCC(C(=O)NCc3cccnc3)CC2)cc1,-6%,-16%
Oc1cccc(-c2nc3ccccc3s2)c1,-20%,.
N#CCCN(C1CCCCC1)S(=O)(=O)c1cccc2nsnc12,-6%,-15%
CCOC(=O)NC1(C(F)(F)F)NC(=O)N(c2cccc(C(F)(F)F)c2)C1=O (stereo unspecified),-13%,-3%
CC(C)(C)C1CCN2CCCC(c3ccccc3)(C1)C2=O (stereo unspecified),9%,3%
C[C@@H]1CN([C@@H](C)CO)C(=O)c2cccc(NC(=O)C3CCCCC3)c2O[C@@H]1CN(C)C(=O)NC1CCCCC1,?,?
N#C/C(=C\c1ccc(/C=C(/C#N)c2nn(CCO)c(N)c2C#N)cc1)c1nn(CCO)c(N)c1C#N,-1%,-20%
COc1cc(C(=O)OCC(=O)N2CC(C)OC(C)C2)cc(OC)c1OC (stereo unspecified),-6%,9%

Next entries follow.
SMILES,VACV Venus inh,VACV mCherry inh
Cc1ccc(S(=O)(=O)n2nc(-c3ccccc3)nc2NCc2ccccc2Cl)cc1,-12%,-19%
Cc1cccc(NS(=O)(=O)c2ccc3[nH]c(=O)oc3c2)c1C,-15%,-7%
Cc1cscc(C)c1=S,-4%,i
CCN(N=O)c1ccc(/C=C2\C=Cc3ccccc32)cc1,6%,44%[activator]
COc1ccc2cnn(-c3ccc(OC(F)(F)Cl)cc3)c(=O)c2c1OC,7%,i

From PubChem
